# Screening data deposited in PubChem BioAssay by National Center for Advancing Translational Sciences (NCATS).
# 2A StopGo: High Throughput Screening for Foot and Mouth Disease Virus Antivirals; human cells with a luciferase reporter of 2A StopGo recoding; control for the full effect not named in the record; Potency, µM (titrated, usually from 57.9 µM), without a hit: at the top dose signal change, negative = less light; 1.2% of 410,000 active; AID 1159524, 2015; active = well fitted falling curve with a large enough effect; inconclusive = small, poorly fitted or top-dose-only effect; inactive = no such curve, though single readings can be large or run the other way; tested in HEK293T cells; also: nearly all actives have a fitted effect of over 45% in size; luciferase light after 4 h
# LASV entry inh: qHTS for Inhibitors of binding or entry into cells for Lassa Virus; 1.2% of 300,000 active; Lassa virus pseudotype entry inhibition, cell reporter; control for the full effect not named in the record; Potency, µM (highest dose often 37.9 µM), inactives show top-dose activity change, negative = inhibition, usual class: inhibitors; active means well fitted inhibition curve with a large enough effect; inconclusive means small, poorly fitted or top-dose-only effect, or effect the other way; inactive means flat fitted curve, though single readings scatter; tested in HEK293 cells; also: nearly all actives have a fitted effect of over 50% in size; luciferase read-out
# An asterisk follows results filed as active; ? = inconclusive; [ ] = dose if it differs, or a comment. % is scaled to controls: 0 for no effect and ±100 for the full control effect; potency is read from the fitted curve at half-maximal effect. These rows are one share of the data; the hit share may differ from the screen's.
SMILES,2A StopGo,LASV entry inh
Cc1ccc(CNC(=O)C2CCN(c3nn4cc(-c5ccc(F)cc5)nc4s3)CC2)cc1,27%,14%[46.1 µM]
Cc1ccc(CSc2nc3cccnc3n2Cc2nc(-c3ccccc3F)oc2C)cc1,3%,?
CCn1cc(S(=O)(=O)c2ccc(C)cc2C)c(=O)c2cc(F)c(N3CCCCC3)cc21,-15%,-10%[46.1 µM]
Cc1ccc(CSc2nc3cccnc3n2Cc2ccc(C(=O)NCCc3cccs3)cc2)cc1,-16%,?
Cc1cc(C)cc(NC(=O)c2cn3c4c(ccc(Cl)c4c2=O)OC(C)C3)c1 (stereo not drawn),3%,23%[46.1 µM]
COc1ccc(-c2cn3nc(N4CCC(C(=O)Nc5ccc(Cl)cc5C)CC4)sc3n2)cc1,4%,16%[46.1 µM]
Cc1ccc(C)c(NS(=O)(=O)c2cc3c(cc2C)n(C)c(=O)c(=O)n3C)c1,4%,0%[46.1 µM]
CCOC(=O)C1=C(CN2CCN(c3ccc(C)cc3C)CC2)NC(=O)NC1c1ccc(OC)cc1 (stereo not drawn),?,?
CCOc1ccc(Nc2ncnc3c2nc2n3CCCCC2)cc1,-24%,-4%[46.1 µM]
CSc1ccc(CCNC(=O)CN2C(=O)c3cccnc3Oc3ccc(Cl)cc32)cc1,-27%,?
CCOC(=O)c1cccc(NC(=O)N2CC(CC)Sc3ccccc32)c1 (stereo not drawn),-7%,?
COc1cc(C(=O)N(CCCN(C)C)c2nc3c(OC)cccc3s2)cc(OC)c1OC,-7%,-10%[46.1 µM]
CCc1ccc(NC(=O)C2CCN(c3nn4cc(-c5ccc(OC)cc5)nc4s3)CC2)cc1,-7%,13%[46.1 µM]
Cc1ccc(NS(=O)(=O)c2ccc3[nH]c4c(c3c2)CCCC4)c(C)c1,42%[activator],1%[46.1 µM]
O=C(NC1CCCCC1)c1ccc(CSc2nc3cccnc3n2Cc2cccc(F)c2)cc1,?,?
O=C(COCc1cc(-c2ccc3c(c2)OCO3)on1)NCc1ccccc1Cl,25%,9%[46.1 µM]
O=C(NC1CCCC1)c1ccc(CSc2nc3cccnc3n2Cc2ccccc2F)cc1,?,-29%[46.1 µM]
CCOC(=O)C1CCN(c2ncnc3c2nc2n3CCCCC2)CC1,21%,-3%[46.1 µM]
CC1=C(C(=O)Nc2cccc(Cl)c2C)C2(CCCCCC2)OC1=O,-19%,2%[46.1 µM]
COc1cc(NC(=O)N(Cc2ccco2)C2CCN(C(C)=O)CC2)cc(OC)c1OC,-13%,-22%[46.1 µM]
COc1cc(OC)c(NC(=O)CC(C)S(=O)(=O)c2ccc3c(c2)NC(=O)CO3)cc1Cl (stereo not drawn),-20%,6%[46.1 µM]
O=C(NCc1ccco1)c1ccc(Cn2c(SCc3ccccc3F)nc3cccnc32)cc1,-4%,-7%[46.1 µM]
COc1ccc(NC(=O)CC(C)S(=O)(=O)c2cc3c(cc2C)NC(=O)CO3)cc1OC (stereo not drawn),11%,2%[46.1 µM]
CCOc1ccccc1NC(=O)CSc1ncc(S(=O)(=O)c2ccc(C)c(C)c2)c(N)n1,?,-28%[46.1 µM]
CCCC(C(=O)Nc1cc(C)c(Cl)cc1OC)N1Cc2ccccc2C1=O (stereo not drawn),-14%,-9%[46.1 µM]

# As a working copy, 14 of the compounds above.
SMILES,2A StopGo,LASV entry inh
COc1cc(C(=O)N(CCCN(C)C)c2nc3c(OC)cccc3s2)cc(OC)c1OC,-7%,-10%[46.1 µM]
CCc1ccc(NC(=O)C2CCN(c3nn4cc(-c5ccc(OC)cc5)nc4s3)CC2)cc1,-7%,13%[46.1 µM]
Cc1ccc(NS(=O)(=O)c2ccc3[nH]c4c(c3c2)CCCC4)c(C)c1,42%[activator],1%[46.1 µM]
O=C(NC1CCCCC1)c1ccc(CSc2nc3cccnc3n2Cc2cccc(F)c2)cc1,?,?
O=C(COCc1cc(-c2ccc3c(c2)OCO3)on1)NCc1ccccc1Cl,25%,9%[46.1 µM]
O=C(NC1CCCC1)c1ccc(CSc2nc3cccnc3n2Cc2ccccc2F)cc1,?,-29%[46.1 µM]
CCOC(=O)C1CCN(c2ncnc3c2nc2n3CCCCC2)CC1,21%,-3%[46.1 µM]
CC1=C(C(=O)Nc2cccc(Cl)c2C)C2(CCCCCC2)OC1=O,-19%,2%[46.1 µM]
COc1cc(NC(=O)N(Cc2ccco2)C2CCN(C(C)=O)CC2)cc(OC)c1OC,-13%,-22%[46.1 µM]
COc1cc(OC)c(NC(=O)CC(C)S(=O)(=O)c2ccc3c(c2)NC(=O)CO3)cc1Cl (stereo not drawn),-20%,6%[46.1 µM]
O=C(NCc1ccco1)c1ccc(Cn2c(SCc3ccccc3F)nc3cccnc32)cc1,-4%,-7%[46.1 µM]
COc1ccc(NC(=O)CC(C)S(=O)(=O)c2cc3c(cc2C)NC(=O)CO3)cc1OC (stereo not drawn),11%,2%[46.1 µM]
CCOc1ccccc1NC(=O)CSc1ncc(S(=O)(=O)c2ccc(C)c(C)c2)c(N)n1,?,-28%[46.1 µM]
CCCC(C(=O)Nc1cc(C)c(Cl)cc1OC)N1Cc2ccccc2C1=O (stereo not drawn),-14%,-9%[46.1 µM]

# More structures follow:
SMILES,2A StopGo,LASV entry inh
CCOCCCNC(=O)NC(CCC(C)C)c1c(-n2cccc2)sc2c1CCN(C)C2 (stereo not drawn),11%,18%[46.1 µM]
COc1ccc(Cl)cc1NC(=O)N1CCC(CN2CCCCCC2)CC1,-16%,-1%[46.1 µM]
CCOc1ccc(NC(=O)CN(C)S(=O)(=O)c2ccc3[nH]c4c(c3c2)CCCC4)cc1,?,?
CCCn1c2ccccc2c2cnn(CC(=O)NCCc3ccc(OCC)cc3)c(=O)c21,-19%,-19%[46.1 µM]
CCCn1cc(S(=O)(=O)c2ccccc2)c(=O)c2cc(F)c(N3CCCCC3)cc21,4%,1%[46.1 µM]
O=C(COCc1cc(-c2cccs2)on1)Nc1cccc(Cl)c1Cl,-19%,13%[46.1 µM]
CCn1cc(S(=O)(=O)c2cccc(Cl)c2)c(=O)c2cc(F)c(N3CCN(C)CC3)cc21,7%,-4%[46.1 µM]
COc1ccc(CCNC(=O)c2ccc(-n3c(C)cc4c3CCCC4)cc2)cc1OC,-18%,?
COc1ccc(OC)c(NC(=O)COCc2cc(-c3ccco3)on2)c1,-3%,15%[46.1 µM]
O=C(NC1CCCC1)c1ccc(CSc2nc3cccnc3n2Cc2ccccc2)cc1,-36%,-2%[46.1 µM]
O=C(NCc1ccc(Cl)cc1)C1CCN(c2nn3cc(-c4ccc(F)cc4)nc3s2)CC1,19%,1%[46.1 µM]
CCN1CCC(N(Cc2ccc3c(c2)OCO3)C(=O)Nc2cc(Cl)ccc2C(=O)OC)CC1,-24%,?
CC(=O)N1CCC(N(Cc2ccco2)C(=O)Nc2ccc(C)c(Cl)c2)CC1,-18%,8%[46.1 µM]
COc1cc(Cl)c(NC(=O)c2cc(S(=O)(=O)N3CCCCC3)c[nH]2)c(OC)c1,-5%,10%[46.1 µM]
CCN(CC)CCCNC(=O)Cn1c(-c2cccs2)cc2cc(Cl)ccc21,-5%,?
Cc1ccc(CNC(=O)c2ccc(-n3c(C)cc4c3CCCC4)cc2)cc1,-3%,?
CCc1ccc(CNC(=O)CN2C(=O)c3cccnc3Oc3ccc(Cl)cc32)cc1,-20%,-9%[46.1 µM]
Cc1cccc(NC(=O)Cn2cc(S(=O)(=O)Cc3ccccc3Cl)c3ccccc32)c1,-2%,14%[46.1 µM]
CCOc1ccc(CCNC(=O)C(CC(C)C)N2Cc3ccccc3C2=O)cc1OCC (stereo not drawn),-6%,-13%[46.1 µM]
O=C(NC1CCCCC1)c1ccc(CSc2nc3cccnc3n2Cc2ccccc2)cc1,?,-8%[46.1 µM]
Cc1ccc(S(=O)(=O)c2cn(Cc3ccccc3)c3cc(N4CCOCC4)c(F)cc3c2=O)cc1,-1%,?
O=C(Cn1cc(S(=O)(=O)Cc2ccccc2Cl)c2ccccc21)NCc1ccccc1Cl,-1%,10%[46.1 µM]
Cc1ccc(NC(=O)Nc2cn(C)c(=O)c3ccccc23)c(Cl)c1,?,-11%[46.1 µM]
CCOc1ccc(CCNC(=O)c2nc(-c3cccc(F)c3)n3c2CCCCC3)cc1OCC,-17%,?
Cc1cc2c(n1-c1ccc(C(=O)NCCc3ccc(Cl)cc3)cc1)CCC(C)C2 (stereo not drawn),-23%,-16%[46.1 µM]
SMILES,2A StopGo,LASV entry inh
Cc1ccc(NC(=O)N2CCC(CN3CCC(C)CC3)CC2)cc1F,6%,-1%[46.1 µM]
Cc1ccc(C)c(N2CCN(CCCNC(=O)Cn3c(-c4cccs4)cc4ccccc43)CC2)c1,0%,?
O=C(Nc1ccc(F)c(Cl)c1)N1CCC(CN2CCOCC2)CC1,18%,?
COc1ccc(N2CCN(CCCNC(=O)Cn3c(-c4cccs4)cc4ccccc43)CC2)cc1,-22%,1%[46.1 µM]
CCCCn1cc(S(=O)(=O)c2ccc(OC)cc2)c(=O)c2cc(F)c(N3CCOCC3)cc21,-3%,6%[46.1 µM]
CCc1ccccc1NC(=O)C1=C(C)C(=O)OC12CCCCCC2,-10%,0%[46.1 µM]
CCS(=O)(=O)N1CC(=O)N(c2ccc(Cl)cc2C)C(C)(C(=O)NC2CCCCCC2)C1 (stereo not drawn),-1%,?
CC1CCCN(C(=O)Cn2ncc3c([nH]c4ccccc43)c2=O)C1 (stereo not drawn),-2%,-11%[46.1 µM]
CC(=O)N1CCC2(CC1)OC(=O)C(C)=C2C(=O)Nc1ccccc1C(F)(F)F,-5%,?
CCCN(CCC)C(=O)Cn1c(SCc2cccc(F)c2)nc2cccnc21,1%,-4%[46.1 µM]
CCCN1CCN(c2cc3c(cc2F)c(=O)c(S(=O)(=O)c2ccc(CC)cc2)cn3CC)CC1,1%,-17%[46.1 µM]
O=C(Cn1cc(S(=O)(=O)Cc2ccccc2Cl)c2ccccc21)NCCc1ccccc1,3%,15%[46.1 µM]
O=C(NC1CCCC1)c1ccc(CSc2nc3cccnc3n2Cc2ccc(F)cc2)cc1,-10%,28%[46.1 µM]
Cc1ccc(NC(=O)CN2C(=O)COc3ccc(S(=O)(=O)NC4CCCC4)cc32)c(Cl)c1,36%[activator],-6%[46.1 µM]
CC(C)c1ccc(S(=O)(=O)c2cnc(SCC(=O)Nc3cccc(C(F)(F)F)c3)nc2N)cc1,?,-5%[46.1 µM]
Cc1cc(C)cc(S(=O)(=O)c2cn(C)c3cc(N4CCCC4)c(F)cc3c2=O)c1,14%,?
Cn1cc(S(=O)(=O)c2cccc(Cl)c2)c(=O)c2cc(F)c(N3CCCCC3)cc21,1%,-2%[46.1 µM]
CC(=O)N1CCC(N(Cc2ccc(C)o2)C(=O)Nc2ccc(C)cc2)CC1,1%,0%[46.1 µM]
COc1ccc(Cl)cc1NC(=O)CN1Cc2ccccc2C1=O,5%,17%[46.1 µM]
Cc1ccc(S(=O)(=O)c2cn(Cc3cccc(F)c3)c3cc(N4CCCC4)c(F)cc3c2=O)cc1,1%,-1%[46.1 µM]
Cc1ccc(NS(=O)(=O)c2cc3[nH]c(=O)c(=O)[nH]c3cc2C)cc1N(C)C,2%,-4%[46.1 µM]
Cc1ccc(CNC(=O)Cn2c(-c3cccs3)cc3cc(Cl)ccc32)cc1,-18%,19%[46.1 µM]
O=C(Cn1c(-c2cccs2)cc2cc(Cl)ccc21)N1CCCCC1,-6%,-9%[46.1 µM]
CCc1ccc(S(=O)(=O)c2cn(C)c3cc(N4CCCC4)c(F)cc3c2=O)cc1,-21%,-3%[46.1 µM]
Cc1ccc(C)c(NC(=O)Cn2ncc3c([nH]c4ccccc43)c2=O)c1,6%,0%[46.1 µM]
SMILES,2A StopGo,LASV entry inh
Clc1cccc(Nc2ncnc3c2nc2n3CCCCC2)c1,-12%,6%[46.1 µM]
CC1Cc2cc(S(=O)(=O)NCCc3ccccc3)ccc2N1C(=O)C1CCC1 (stereo not drawn),30%,-21%[46.1 µM]
Cc1cccc(NC(=O)N2CCC(CN3CCCCCC3)CC2)c1C,-6%,22%[46.1 µM]
CCOc1ccc(CNC(=O)c2cnc(SC)nc2C)cc1,?,-4%[46.1 µM]
Cc1ccc(CNS(=O)(=O)c2ccc3c(c2)CC(C)N3C(=O)C2CCC2)cc1 (stereo not drawn),?,-5%[46.1 µM]
Cc1cccc(CNC(=O)C2CCN(c3nn4cc(-c5ccc(F)cc5)nc4s3)CC2)c1,39%[activator],?
Cc1ccc(CNC(=O)c2ccc(CN3CC(=O)N4CCCCC4C3=O)cc2)cc1 (stereo not drawn),-19%,-13%[46.1 µM]
COc1ccc(-c2cn3nc(N4CCCC(C(=O)NCc5ccccc5Cl)C4)sc3n2)cc1 (stereo not drawn),7%,?
CCCS(=O)(=O)N1CC(=O)N(c2ccccc2F)C(C)(C(=O)NC2CCCCCC2)C1 (stereo not drawn),17%,3%[46.1 µM]
CC(C)CC(C(=O)NCc1ccc(F)cc1)N1Cc2ccccc2C1=O (stereo not drawn),9%,23%[46.1 µM]
CCOc1ccccc1CNC(=O)C1=C(C)C(=O)OC12CCN(C(C)=O)CC2,-7%,-3%[46.1 µM]
